KCNQ2 pot = potentiators of rat KCNQ2 potassium channel; O88943; CHO-K1 KCNQ2, FluxOR thallium flux fluorescence; active compounds read high; B-score at 10 µM; 0.54% of 310,000 active; AID 2239;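 active means fluorescence ratio B-score at least 3 SD of library B-scores, with initial fluorescence B-score within 3 SD, cut at about 5.3 in these data; same plate scores as AID 2156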;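 further: B-score of peak minus minimum over baseline fluorescence ratio after K+ and Tl+ stimulus; positive B-score means potentiation of KCNQ2 with more thallium influx and brighter signal; only the inactives scoring about 0 or higher are listed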
Target sequence (O88943 whole entry, looked up): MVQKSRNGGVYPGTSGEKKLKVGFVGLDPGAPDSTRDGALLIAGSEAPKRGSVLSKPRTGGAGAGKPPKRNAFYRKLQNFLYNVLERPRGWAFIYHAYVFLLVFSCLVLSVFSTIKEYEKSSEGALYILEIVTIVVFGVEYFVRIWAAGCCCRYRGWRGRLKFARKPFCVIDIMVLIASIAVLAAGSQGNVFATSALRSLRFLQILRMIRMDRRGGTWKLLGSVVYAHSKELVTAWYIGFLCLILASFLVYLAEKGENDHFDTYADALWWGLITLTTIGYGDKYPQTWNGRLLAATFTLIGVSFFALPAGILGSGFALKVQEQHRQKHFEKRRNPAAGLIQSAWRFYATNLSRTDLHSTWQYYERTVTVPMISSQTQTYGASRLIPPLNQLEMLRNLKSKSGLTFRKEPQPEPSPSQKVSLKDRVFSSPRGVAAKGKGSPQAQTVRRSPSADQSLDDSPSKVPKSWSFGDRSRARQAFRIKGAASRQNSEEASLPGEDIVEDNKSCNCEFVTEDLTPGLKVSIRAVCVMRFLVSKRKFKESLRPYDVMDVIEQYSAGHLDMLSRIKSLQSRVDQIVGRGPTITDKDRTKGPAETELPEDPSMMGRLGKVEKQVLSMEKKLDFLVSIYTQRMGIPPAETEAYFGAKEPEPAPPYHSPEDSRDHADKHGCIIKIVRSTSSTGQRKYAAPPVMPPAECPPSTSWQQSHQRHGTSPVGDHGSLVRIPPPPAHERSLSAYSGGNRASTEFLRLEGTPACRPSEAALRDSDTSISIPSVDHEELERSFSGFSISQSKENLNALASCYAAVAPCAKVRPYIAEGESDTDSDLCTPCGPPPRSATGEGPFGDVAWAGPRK
KCNQ2 pot baseline = second read-out of KCNQ2 pot, no call of its own (marks repeat the call); B-score; compound at 10 µM; measured here: initial fluorescence intensity artifact check;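 brightness before thallium and not channel activity; 0 = typical well and far values either way flag optical interference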
Starred values were filed as active, the others as inactive. This is a subset (hit frequency here may not be typical).

SMILES	KCNQ2 pot	KCNQ2 pot baseline
COc1ccccc1NS(=O)(=O)c1cc(-c2cc(C)no2)ccc1OC	2.14	-3.13
Cn1c(NC(=O)c2ccccc2F)cc(=O)n(C)c1=O	0.01	0.64
CCOC(=O)C(Cc1ccccc1)C(=O)Nc1nccs1 (stereo not given)	1.57	-0.06
CC(C)Oc1ccc(/C=N/NC(N)=S)cc1	1.52	2.46
COc1ccc(Cl)cc1NC(=O)CN1CCC(NC(=O)C2CC2)CC1	0.25	0.66
Cc1ccc(NC(=O)CCC(=O)NNC(=S)Nc2ccccc2)c(C)c1	0.23	1.08
CC(C)CCNC(=O)C(c1ccco1)N(C(=O)Cn1nnc2ccccc21)c1ccc2c(c1)OCO2 (stereo not given)	0.74	-0.03
CCn1c(CNC(=O)C23CC4CC(CC(C4)C2)C3)nnc1SCC(=O)Nc1nnc(C)s1	1.76	0.03
CC(=O)c1ccc(N2CCN(C(=S)Nc3ccc(Oc4ccccc4)cc3)CC2)cc1	3.21	-0.24
Cc1ccc(C)c(CN2CCC(CNC(=O)CCc3nnc4ccc(N5CCC(C)CC5)nn34)CC2)c1	0.68	-0.01
COc1ccc(C)cc1S(=O)(=O)Nc1cccc(C)c1	1.62	-2.01
Cc1cc(C)nc(CCNC(=O)c2cc(COc3ccccc3)on2)n1	0.55	0.51
COc1ccccc1CC(=O)O/N=C(\N)Cc1cccc2ccccc12	0.21	0.51
CCOC(=O)NC(Nc1ccc(OC)cc1)(C(F)(F)F)C(F)(F)F	0.24	-0.64
COc1ccc(/C=N/NC(=O)COc2cc(C)cc(C)c2)cc1COC(C)=O	4.09	0.04
CCC(=O)N1CCc2cc(S(=O)(=O)N3CCN(C(=O)c4ccco4)CC3)ccc21	0.03	-1.87
CC(C)=C(NC(=O)c1ccccc1)C(=O)NCc1ccccc1	0.08	2.93
COc1ccc(NS(=O)(=O)c2cc(Br)cc3c2N(C(C)=O)CC3)cc1	0.21	-0.6
CCCCCSc1nnc2c(n1)OC(C)N(C(C)=O)c1ccccc1-2 (stereo not given)	1.46	3.37
COc1ccc(NS(=O)(=O)c2ccc(S(=O)(=O)N3CCOCC3)cc2)cc1	0.35	1.21
CN(C)C=NC1=NN(c2cccc(C(F)(F)F)c2)CC1	0.88	0.92
Cc1nnc(SCc2c(Cl)cccc2[N+](=O)[O-])s1	0.07	0.81
N#C/C(=C1\CCCN1)c1ccc2ccccc2n1	0.66	0.16
CN(C)Cc1ccccc1Sc1ccc(Br)cc1	0.01	-1.21
CC(=O)Nc1cccc(NC(=O)CSc2ncc(-c3ccccc3)[nH]2)c1	0.13	-1.16
COc1cc(/C=N/n2cnnc2)ccc1OC(=O)c1ccncc1	0.14	0.53
CC1CCN(c2nc3ccccc3nc2N2CCC(C)CC2)CC1	0.36	-0.05
CCOC(=O)Nc1oc2ccccc2c(=O)c1C	2.9	-0.59
COc1cc(C(=O)OCc2cc(=O)c(O)co2)ccc1OC(F)F	0.04	-0.72
O=C(NCc1ccco1)c1ccccc1-c1ccccc1	0.24	2.56
CC(C)c1ccc(-c2nc(N3CCCCC3)[nH]c(=O)c2C#N)cc1	0.96	-1.04
Cc1ccc(OCC(=O)N2CCC(N3CCCCCC3)CC2)cc1	1.09	0.55
CN(C)S(=O)(=O)N1CCN(C(=O)c2ccc3c(c2)OCO3)CC1	1.37	0.59
Cc1cnc(NC(=O)c2ccco2)s1	0.28	0.01
COc1ccc(C(=O)C2CCN(C(=O)Nc3ccccc3C)CC2)cc1	0.31	-1.61
CCCn1c2ccccc2c2nnc(SCC(=O)Nc3cc(C)on3)nc21	0.05	-1.42
COc1cccc(N2CCN(S(=O)(=O)c3ccc(-c4cnc(C5CC5)o4)cc3)CC2)c1	0.13	0.08
CCOC(=O)Cc1csc(NC(=O)CSc2nc(=O)[nH]c3c2CCC3)n1	0.07	1.24
O=C(Nc1cccnc1)c1cccs1	1.76	0.95
Cc1ccc(OCC(=O)Nc2ccc3oc(=O)ccc3c2)cc1	0.54	-1.13

Among those listed so far, 2 have a Cl atom:
SMILES	KCNQ2 pot	KCNQ2 pot baseline
COc1ccc(Cl)cc1NC(=O)CN1CCC(NC(=O)C2CC2)CC1	0.25	0.66
Cc1nnc(SCc2c(Cl)cccc2[N+](=O)[O-])s1	0.07	0.81

(further entries)
SMILES	KCNQ2 pot	KCNQ2 pot baseline
COC(=O)c1c(NC(=O)CN2CCN(c3ccccc3)CC2)c2c(C)cccc2n1C	1.07	-0.07
CC(=O)NS(=O)(=O)c1ccc(NC(=O)c2cccc(S(=O)(=O)N3CCc4ccccc43)c2)cc1	1.66	0.58
CCn1cc(S(=O)(=O)N2CCc3ccccc3C2)cn1	0.39	2.22
Cc1ccc(CNC(=O)CCCC(=O)O)cc1	1.96	-0.92
CSc1nsc(SCC(=O)Nc2ccccc2)n1	3.51	-0.17
CC(NC(=O)CN(C)S(=O)(=O)c1ccc2c(c1)c(=O)n(C)c(=O)n2C)c1ccccc1 (stereo not given)	0.46	-0.6
Cc1cc(C(=O)Nc2ccc(N3CCOCC3)c(Cl)c2)c(C)o1	1.65	-0.14
CC1(C)CC2CC(C)(CN2C(=O)c2ccc([N+](=O)[O-])cc2)C1 (stereo not given)	0.02	0.12
Cn1cc([N+](=O)[O-])c(C(=O)Nc2ccc(-c3nc4ccccc4[nH]3)cc2)n1	0.16	-2.19
Oc1ccccc1/C=N/Nc1nc2ccccc2o1	3.15	-0.01
CCCN(CCC)c1nc2ccccc2nc1C(C#N)C(=O)OC(C)COC (stereo not given)	1.31	0.1
CCc1ccccc1NC(=O)CCN1C(=O)c2ccccc2C1=O	0.23	-0.69
O=C(O)C1C2C=CC(C2)C1C(=O)OCc1ccccc1 (stereo not given)	0.64	0.85
CCN(CC)CCCNc1nc(N)c([N+](=O)[O-])c(NCCO)n1	0.29	0.03
N/C(=N\OC(=O)CCCOc1ccccc1)c1ccccn1	1	-0.04
COc1ccc2c(c1)C(=O)N(c1ccccc1OC)C(=O)C2(C)C	0.05	-0.03
O=C(O)c1ccc(NC(=S)NC(=O)c2cncc(Br)c2)cc1	0.5	0.37
O=C(CNC(=O)c1ccc(Cl)cc1)OC1CCOC1=O (stereo not given)	0.34	0.04
O=C(N1CCOCC1)C12CC3CC(C1)CC(n1cnc(Cl)n1)(C3)C2	3.39	-0.78
COc1ccc(Nc2nc(-c3cccnc3)cs2)c(OC)c1	1.59	-0.87
COc1ccc(C(=O)Nc2nnc(S(=O)(=O)N(C)Cc3ccc(F)cc3)s2)cc1OC	0.04	-0.03
Cc1ccc(-c2nc(NCc3ccc(F)cc3)n(S(C)(=O)=O)n2)cc1	0.67	0.02
CN(C)S(=O)(=O)c1ccc(S(=O)(=O)NCc2ccc3c(c2)OCO3)cc1	0.95	-0.73
O=C1CCC(C(=O)OCC(=O)c2c[nH]c3ccccc23)=NN1	1.5	-0.58
CCO[C@@H]1OC(C(=O)O)=C[C@H](c2coc3ccccc3c2=O)[C@H]1CCCO	1.16	0.1
CCN1C(=O)[C@H]2[C@@H](c3ccc(SC4CCCCC4)cc3)N[C@@](CC(C)C)(C(=O)OC)[C@H]2C1=O	0.3	-0.33
COc1ccc(-n2nc(C(=O)NCC(=O)N3CCC(C)CC3)c3ccccc3c2=O)cc1Cl	0.44	-2.6
NC(=O)NC(CC(=O)Nc1cccnc1)c1cccc(Br)c1 (stereo not given)	0.62	0.02
Cc1ccc(-n2ncc(C(=O)NCc3ccc4c(c3)OCO4)c2NC(=O)c2ccco2)cc1C	1.07	0.39
CCN(CC)C(=O)Nc1c(C)n(C)n(-c2ccccc2)c1=O	1.06	-0.08
Cc1ccc(COC(=O)CCc2nc3ccccc3c(=O)[nH]2)cc1	0.51	-0.75
COCCCNC(=O)CSc1nc2c(sc(=S)n2-c2cc(Cl)ccc2OC)c(=O)[nH]1	1.01	0.56
CCc1ccc(NC(=O)CN(C(=O)N2CCN(CC)CC2)S(=O)(=O)c2ccc(C)cc2)cc1	0.85	0.42
O=c1c(/C=N/O)coc2ccc3ccccc3c12	0.82	0.97
CC(=O)c1cccc(NC(=O)CC2S/C(=N/N=C3CCCCCC3)NC2=O)c1 (stereo not given)	1.13	-1.49
O=C(C1CCN(S(=O)(=O)c2cnc[nH]2)CC1)N1CCN(c2ncccn2)CC1	1.48	-0.41
O=C(Nc1ccc(NC(=O)C2CC2)cn1)c1ccccc1	0.63	-1.24
C=CCn1c(O)c(N=NC(=S)Nc2cccc(OC)c2)c2ccccc21	11.8*	1.78*
Cc1c(C(=O)NCc2ccc3c(c2)cc(C)n3C)cccc1[N+](=O)[O-]	1.84	-0.84
CCNC(=O)c1ccc(CSc2ccc(Cl)cc2)cc1	1.23	-0.03
COc1ccc(-c2cc(C)no2)cc1S(=O)(=O)N(C)c1cccc(C)c1	0.07	-0.33
CCOC(=O)N1CCC(N(CCN(C)C)C(=S)Nc2cc(C)cc(C)c2)CC1	0.86	-1.23
O=S(=O)(c1ccccc1)N1N=C(c2ccccc2)CC1c1ccccc1 (stereo not given)	1.83	-0.51
COc1ccc(NC(=O)CCCCC(=O)Nc2ccc(OC)cc2OC)c(OC)c1	1.06	0.27
O=C(Oc1ccnc2cc(Cl)ccc12)N1CCCCCC1	0.04	-1.21
Cc1ccc2cccc(Oc3ccc([N+](=O)[O-])cc3[N+](=O)[O-])c2n1	0.06	-2
CC1CCN(C(=S)NC(=O)c2ccccc2)CC1	0.9	0.69
CSc1cccc(NC(=O)C(=O)NCc2ccccc2)c1	0.46	0.41
C=CCN(C(=O)c1csnn1)C(C(=O)NC1CCCC1)c1ccccc1F (stereo not given)	0.54	0.8
COCCCn1c(SCc2cc(=O)[nH]c3ccccc23)nnc1-c1ccco1	2.33	-0.35
Further entries follow.
SMILES	KCNQ2 pot	KCNQ2 pot baseline
O=C(NC1CCNCC1)C1CCCCC1	1.74	-0.81
O=C(Nc1ccc([N+](=O)[O-])cc1)C(=O)Nc1cccc(C(=O)O)c1	0.73	2.22
COCCCNC(=O)c1cc(S(=O)(=O)N2CCOCC2)ccc1SCc1cccc(OC)c1OC	0.13	0.33
O=C(NC1CCCCCC1)c1nnc(Cc2ccc(Cl)cc2)o1	0.64	-1.71
CCNCCNc1ccc(Cl)cc1[N+](=O)[O-]	0.43	0.16
COc1ccc(C(c2nnnn2C(C)(C)C)N2CCN(C)CC2)cc1OC (stereo not given)	0.02	-2.21
CCCn1c(SCC(=O)N2CCCCC2)nnc1-c1ccccn1	0.01	0
Clc1ccc(N2CCN(/N=C/c3cccnc3)CC2)cc1	0.81	2.74
CC(C)C[C@H](NC(=O)c1ccc(OC2CCN(C(=O)C3CC3)CC2)cc1)C(N)=O	0.75	-0.56
COc1ccc(/C=N/NC(=S)Nc2cccc(C(=O)O)c2)cc1	0.6	0.12

Ordered by value in KCNQ2 pot (low to high): some entries from above
Structure	KCNQ2 pot	KCNQ2 pot baseline
COc1ccc(/C=N/NC(=S)Nc2cccc(C(=O)O)c2)cc1	0.6	0.12
Clc1ccc(N2CCN(/N=C/c3cccnc3)CC2)cc1	0.81	2.74
O=C(NC1CCNCC1)C1CCCCC1	1.74	-0.81

(more compounds)
SMILES	KCNQ2 pot	KCNQ2 pot baseline
CC(C)Oc1ccc(/C=N/NC(=O)c2ccc(N(Cc3ccccc3)S(C)(=O)=O)cc2)cc1	1.25	-0.15
Cc1cc2c(cc1S(=O)(=O)N1CC(C)CC(C)C1)OCC(=O)N2 (stereo not given)	1.72	-2.6
CC1=C(C(=O)OC(C)C)C(c2ccc(O)cc2)NC(=O)N1 (stereo not given)	0.19	0.1
COc1ccc(N2C(=O)CCC(C(=O)Nc3cccc(C)n3)C2c2ccc(OC)c(OC)c2)cc1 (stereo not given)	0.67	-0.2
Cc1ccc2oc(=O)c3cnn(CC(=O)NCCCOC(C)C)c3c2c1	0.26	1.08
COc1ccc(-c2noc(CCC(=O)Nc3ccc(C)c(C)c3)n2)cc1	1.29	-0.91
O=C(O)CCCN1C(=O)C2C3C=CC(C2C1=O)C1C(=O)N(CCCC(=O)O)C(=O)C31 (stereo not given)	0.09	0.19
CCCCSc1nnc2c(n1)OC=Nc1ccccc1-2	1.09	-1.17
CN(C)c1ccc(NC(=O)CSc2nc(N)c(C(=O)Nc3ccc(N(C)C)cc3)s2)cc1	0.46	-1.11
O=C(O)CC(c1ccc(Br)cc1)N1Cc2ccccc2C1=O (stereo not given)	0.5	-0.73

Already shown: an excerpt of the list.
SMILES	KCNQ2 pot	KCNQ2 pot baseline
CC(C)Oc1ccc(/C=N/NC(=O)c2ccc(N(Cc3ccccc3)S(C)(=O)=O)cc2)cc1	1.25	-0.15
Cc1cc2c(cc1S(=O)(=O)N1CC(C)CC(C)C1)OCC(=O)N2 (stereo not given)	1.72	-2.6
CC1=C(C(=O)OC(C)C)C(c2ccc(O)cc2)NC(=O)N1 (stereo not given)	0.19	0.1
COc1ccc(N2C(=O)CCC(C(=O)Nc3cccc(C)n3)C2c2ccc(OC)c(OC)c2)cc1 (stereo not given)	0.67	-0.2
Cc1ccc2oc(=O)c3cnn(CC(=O)NCCCOC(C)C)c3c2c1	0.26	1.08
COc1ccc(-c2noc(CCC(=O)Nc3ccc(C)c(C)c3)n2)cc1	1.29	-0.91
O=C(O)CCCN1C(=O)C2C3C=CC(C2C1=O)C1C(=O)N(CCCC(=O)O)C(=O)C31 (stereo not given)	0.09	0.19

Next results.
SMILES	KCNQ2 pot	KCNQ2 pot baseline
CCCn1nnnc1NCc1ccc(F)cc1	0.08	-1.75
CC(=O)Nc1cc2c(cc1NC(=O)Cn1nnc(-c3ccc(C)o3)n1)OCCO2	0.02	-2.55
CC(=O)N1c2ccc(S(=O)(=O)N3CCC(C(=O)Nc4ccc(C)cn4)CC3)cc2CC1C (stereo not given)	0.4	-0.25
CCC1CCCCN1CCCNC(=O)c1nn(C)c2c1CS(=O)(=O)c1ccccc1-2 (stereo not given)	0.15	0.93
O=C(Nc1ccc(S(=O)(=O)N2CCOCC2)cc1)c1ccc([N+](=O)[O-])s1	0.28	-1.49
O=C(Cn1cccc1C(=O)c1ccccc1)NCc1ccc(F)cc1	0.75	1.87

From PubChem
